# TRPML1 ag – agonists of human TRPML1 channel; Q9GZU1; TRPML1-expressing cells, Ca2+ dye fluorescence, FDSS; host cell line not named in the record; reference of the full effect not given here; activation, % (no concentration beside the values); actives 0.12% (n = 410,000); AID 624414; in the data active = activation above about 50%; inconclusive = about 30% to 50%; inactive = below about 30%; further: 0% is about no effect; the text of the record puts the active cut at 80%
#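 Agonist activity was taken from a 110 s kinetic Ca2+ dye read on the FDSS after pinning compounds onto TRPML1-DL cells. The cells were seeded at 1,500/well with Tet inducer, incubated about 16 h, then dye-loaded at room temperature.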
# D2 ag – human D2 receptor agonism in beta-arrestin assay; DiscoveRx PathHunter D2 beta-arrestin, luminescence, 90 min; 100% = 57 uM dopamine signal; activation, % (concentration not given with the values); actives 0.084% (n = 360,000); in the data active = activation above about 40%; inconclusive = about 15% to 40%; inactive = below about 15%; further: compound concentration not given in the record; the text of the record calls up to 30% inactive
#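 DiscoveRx PathHunter D2 beta-arrestin cells (2,100/well) attached overnight, then compound-stimulated 90 min at 37 C in HBSS/10 mM HEPES/0.1% Tween-20 buffer; beta-galactosidase complementation read by luminescence after 1 h at ambient temperature. Dopamine 57 uM final (EC100) as control.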
# TRPML1 blocker – inhibitors of human TRPML1 channel; TRPML1-inducible cells, Ca2+ dye fluorescence, FDSS; active compounds read low; inhibition of EC80 agonist-evoked calcium signal; activity change, negative = inhibition, % (concentration not given with the values); actives 0.02% (n = 390,000); AID 624415; in the data active means activity change below about -50%; inconclusive means about -30% to -50%; inactive means above about -30%;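 further: stimulus is agonist 54-4 at its EC80 concentration; on the % scale 0 is the no-effect control and ±100 the full control effect; the text of the record puts the active cut at -80%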
#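 TRPML1-DL cells, Tet-induced overnight (~16 h, 37 °C) at 1,500 cells/well, were loaded with Ca8 no-wash dye plus quencher for 45-90 min at room temperature. Compounds were pinned during FDSS kinetic reading; agonist 54-4 at EC80 (4 uM final) then added.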
# Six1-Eya2 inh – Six1/Eya2 interaction inhibition. AlphaScreen GST-Six1/His-Eya2 binding, biochemical; active compounds read low; control for the full effect not named in the record. activity change, % (concentration not given with the values). actives 0.56% (n = 360,000); in the data active = activity change below about -65%; inconclusive = about -30% to -65%; inactive = above about -30%; further: on the % scale 0 is the no-effect control and ±100 the full control effect
# Target sequence (O00167 whole entry, looked up): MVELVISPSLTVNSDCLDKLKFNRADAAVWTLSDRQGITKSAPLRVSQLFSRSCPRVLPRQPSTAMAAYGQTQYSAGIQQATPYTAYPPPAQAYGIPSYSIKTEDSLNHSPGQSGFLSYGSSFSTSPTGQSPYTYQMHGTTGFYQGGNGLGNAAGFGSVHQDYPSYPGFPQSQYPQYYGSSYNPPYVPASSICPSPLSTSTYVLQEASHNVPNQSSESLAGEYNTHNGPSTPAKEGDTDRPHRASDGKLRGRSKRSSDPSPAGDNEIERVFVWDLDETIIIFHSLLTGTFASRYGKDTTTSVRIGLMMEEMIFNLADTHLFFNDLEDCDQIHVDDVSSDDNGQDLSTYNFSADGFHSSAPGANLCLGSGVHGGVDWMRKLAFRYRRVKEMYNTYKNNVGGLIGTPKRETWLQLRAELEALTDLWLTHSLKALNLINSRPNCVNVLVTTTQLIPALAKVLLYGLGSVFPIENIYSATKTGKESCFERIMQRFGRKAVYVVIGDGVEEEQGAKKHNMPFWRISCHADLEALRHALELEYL
# Target sequence (Q15475 whole entry, looked up): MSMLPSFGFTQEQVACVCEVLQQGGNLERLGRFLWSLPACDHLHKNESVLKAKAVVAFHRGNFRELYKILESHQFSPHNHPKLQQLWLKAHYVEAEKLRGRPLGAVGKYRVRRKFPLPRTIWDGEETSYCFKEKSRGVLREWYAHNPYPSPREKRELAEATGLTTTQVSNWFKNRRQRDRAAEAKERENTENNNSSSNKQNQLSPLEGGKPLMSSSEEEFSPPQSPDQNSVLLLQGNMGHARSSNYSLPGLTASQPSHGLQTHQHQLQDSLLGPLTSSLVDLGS
#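 AlphaScreen with GST-Six1 and His-Eya2 (5X mix: 250 nM and 500 nM), glutathione donor and nickel acceptor beads; buffer 50 mM Tris pH 8.0, 300 mM NaCl, 1 mM TCEP; 1 h at 37 C in the dark.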
# CtBP-E1A inh – CtBP/E1A binding inhibition | actives 0.49% (n = 340,000) | AID 651724 | activity change, % (test concentration not listed) | AlphaScreen GST-E1A/His-CtBP binding, 1536-well; active compounds read low; control for the full effect not named in the record; in the data active means activity change below about -65%; inconclusive means about -30% to -65%; inactive means above about -30%; further: on the % scale 0 is the no-effect control and ±100 the full control effect
#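 GST-E1A and His-tagged CtBP (125 nM each as 5X stock) were preincubated with pin-transferred compound for 2 h at 37 °C in the dark, then glutathione donor and nickel acceptor beads were added for 1 h before AlphaScreen reading.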
# PINK1 modulator – changes PINK1 expression | PINK1 immunofluorescence, high-content cytometry, 24 h | Potency, µM (highest dose often 76.6 µM), inactives show at the highest dose activation (PINK1 increase), usual class: activators | actives 0.2% (n = 410,000); active = well fitted activation curve with a large enough effect; inconclusive = small, poorly fitted or top-dose-only effect; inactive = flat fitted curve, though single readings scatter; cell line not stated here;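 further: potency means the concentration at half of the fitted maximal effect; % of control where 0% means no effect; nearly all actives have a fitted effect of over 65% in size; a mitochondrial uncoupler was the plate control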
#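 PINK1 protein, normally rapidly degraded, was detected by immunofluorescence after 24 hour compound treatment of a stable cell line. Titration data (5 concentrations) came from laser-scanning cytometry, with CCCP-treated wells as controls.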
# An asterisk follows results filed as active; ? = inconclusive; . = not tested or not shown; [ ] = remark or other dose.
SMILES,TRPML1 ag,D2 ag,TRPML1 blocker,Six1-Eya2 inh,CtBP-E1A inh,PINK1 modulator
CC1CCCCC1NC(=O)CCS(=O)(=O)c1ccc2c(c1)NC(=O)CS2 (stereo not given),0.3,3.0,9,3,2,-0.2%
Cc1ccc(OCC(=O)Nc2ccc(-n3cnnn3)cc2)c(C)c1,1.9,1.4,3,12,-2,2.8%
Cc1ccn2c(NC3CCCCC3)c(-c3cccc(-c4cccc(Cl)c4)c3)nc2c1,0.1,1.8,-16,-17,-28,?
CN(C)S(=O)(=O)c1cccc(NC(=O)c2ccc(N3CCCC3=O)cc2)c1,-0.4,-5.7,11,-1,3,3.5%
Cc1onc(-c2ccccc2Cl)c1C(=O)NCc1ccccc1F,0.0,0.8,1,6,6,0.9%
CC1(C)CN(c2ccc(Br)cc2)C(=O)[C@H]1CC(=O)Nc1ccccc1,-0.3,-9.6,0,21,-1,2.5%
COc1ccc2nc(SCC(=O)Nc3nccs3)[nH]c2c1,1.3,-3.0,0,-3,.,1.4%
Cn1c(SCC(=O)N2CCOCC2)nnc1-c1ccc2ncccc2c1,0.1,-3.9,-7,24,-23,2.4%
c1cncc(-c2nc3c(ccc4ccccc43)[nH]2)c1,0.3,5.1,-11,-5,8,.
C[C@H](CO)N1C[C@H](C)[C@@H](CN(C)S(=O)(=O)c2cn(C)cn2)Oc2cc(Br)ccc2S1(=O)=O,-0.1,-7.0,-2,3,0,0.9%
Cc1ccc(S(=O)(=O)N2CCCOC2CNC(=O)C(=O)NCc2ccccc2C)cc1 (stereo not given),1.6,-3.0,-4,23,0,-3.4%
CC(/C=C/c1cccs1)=C\C(=O)O,1.7,-1.8,0,18,0,-1.6%
COC(=O)c1ccc(CN2C(=O)C(C)ON=C2c2ncccc2C)o1 (stereo not given),-0.6,2.5,.,2,1,0.0%
O=S(=O)(NCc1ccc2c(c1)OCO2)c1c(F)cc(F)cc1Br,2.9,-0.5,4,-4,-3,0.1%
CCOC(=O)Cn1c(SC)nc2sc3c(c2c1=O)CC(C)(C)OC3,2.3,-0.9,20,1,-2,3.4%
Cc1ccccc1OCC(=O)N/N=C/c1c(C)nn(-c2ccccc2)c1Cl,1.7,-1.9,37,3,1,0.8%
CC1=CC(C)(C)N2C(=O)C3(SCC(=O)N3c3ccc(O)cc3)c3cc(C)cc1c32 (stereo not given),-0.3,-0.1,-8,0,3,.
COc1ccccc1CC(=O)Nc1c[nH]c(=O)[nH]c1=O,-0.3,-1.1,-4,10,7,3.2%
C1CCC(Nc2nc3nonc3nc2N2CCSCC2)C1,2.6,2.4,15,5,-4,-1.9%
CC(C)(C)c1cc(-c2ccccc2)no1,0.4,2.1,-8,7,2,1.3%
COC(=O)[C@@H]1C[C@@H](c2ccccc2)[C@H](C)C1(C)C,-0.5,-2.0,-8,8,9,12%
Cc1ccc(NC(=O)C2CCN(S(C)(=O)=O)CC2)cc1,-0.3,0.5,18,3,-3,-1.0%[38.3 µM]
Cc1ccc2sc(NNC(=O)c3ccc4c(c3)OCCO4)nc2c1C,0.3,7.1,-13,0,-22,0.0%
CCN(CC(=O)N1CCCC1)S(=O)(=O)c1ccc2ccccc2c1,1.1,-2.7,-11,-2,-12,2.3%
CCNC(=O)N1CCCC(C(=O)c2ccc3cc(OC)ccc3c2)C1 (stereo not given),-0.2,4.4,-4,-8,2,1.8%
CCOc1ccc(S(=O)(=O)N/N=C2/CC(c3ccccc3)Oc3ccccc32)cc1 (stereo not given),-0.7,4.0,-3,-5,5,-0.3%
Cc1cc(C)n(-c2nnc(Nc3ccc(C(C)C)cc3)c3ccccc23)n1,0.1,.,-3,.,.,1.8%
O=C(O)c1ccccc1OCCOc1ccccc1C(=O)O,0.4,-2.2,12,4,3,0.7%
O=C(COc1cc2oc(=O)c3c(c2cc1Cl)CCC3)NCc1ccncc1,-0.1,-3.7,2,-19,-3,5.2%
CCOc1ccc(NS(=O)(=O)c2ccc3[nH]c(=O)c(=O)[nH]c3c2)cc1,-0.2,-0.1,5,-1,.,-0.4%

# Reprinted from the part before: seven compounds, followed by the next part.
SMILES,TRPML1 ag,D2 ag,TRPML1 blocker,Six1-Eya2 inh,CtBP-E1A inh,PINK1 modulator
CCN(CC(=O)N1CCCC1)S(=O)(=O)c1ccc2ccccc2c1,1.1,-2.7,-11,-2,-12,2.3%
CCNC(=O)N1CCCC(C(=O)c2ccc3cc(OC)ccc3c2)C1 (stereo not given),-0.2,4.4,-4,-8,2,1.8%
CCOc1ccc(S(=O)(=O)N/N=C2/CC(c3ccccc3)Oc3ccccc32)cc1 (stereo not given),-0.7,4.0,-3,-5,5,-0.3%
Cc1cc(C)n(-c2nnc(Nc3ccc(C(C)C)cc3)c3ccccc23)n1,0.1,.,-3,.,.,1.8%
O=C(O)c1ccccc1OCCOc1ccccc1C(=O)O,0.4,-2.2,12,4,3,0.7%
O=C(COc1cc2oc(=O)c3c(c2cc1Cl)CCC3)NCc1ccncc1,-0.1,-3.7,2,-19,-3,5.2%
CCOc1ccc(NS(=O)(=O)c2ccc3[nH]c(=O)c(=O)[nH]c3c2)cc1,-0.2,-0.1,5,-1,.,-0.4%
COc1ccc(C(=O)c2cn(CC(=O)Nc3cc(OC)cc(OC)c3)c3ccc(OC)cc3c2=O)cc1,0.6,.,18,.,.,-0.6%
N#Cc1c(C(F)(F)F)cc(-c2cccs2)nc1SCC(=O)Nc1cccc(Br)c1,8.0,.,-1,.,.,-0.7%
Cc1ccc(S(=O)(=O)N(C)c2ccc(OCC(=O)Nc3cccc(-n4cnnn4)c3C)cc2)cc1,0.2,-2.0,-6,-6,.,1.1%
COc1ccc(S(=O)(=O)NN=C2CCCCC2)cc1,-0.3,-2.8,-5,1,10,11%[38.3 µM]
C=CCn1c(SCC(=O)NCC2CCCO2)nc2scc(-c3ccco3)c2c1=O (stereo not given),1.5,-0.5,15,-4,-9,?
O=C1C(C2=NC(c3ccccn3)C3C(=O)N(c4ccc(OC(F)(F)F)cc4)C(=O)C23)=C(O)c2ccccc21 (stereo not given),-0.2,-4.0,50,-9,-8,5.5%
Cn1cccc1-c1cc2n(n1)CCC(=O)N2CCCC(=O)NCc1cccc(Cl)c1,1.2,.,-9,.,.,1.0%
CCOc1ccc(CCNC(=O)NCc2noc3ccc(C)cc23)cc1,0.6,.,-6,.,.,1.6%
C1=CC2(C=C1)OC21CCC2(C=CC3(C2)OC3C2CCCCC2)CC1 (stereo not given),0.8,-1.3,-6,2,0,4.4%
CCOC(=O)C1CCN(CCC(=O)Nc2ccccc2)CC1,1.1,0.9,-11,8,8,-1.1%
O=C(CN(C(=O)c1ccc2c(c1)OCCO2)c1ccccc1)NCC1CCCO1 (stereo not given),0.4,-4.3,1,2,0,-0.5%
CCOC(=O)c1ccc(CNC(=O)c2n[nH]c(=O)c3ccccc23)o1,0.4,-0.3,-4,-1,10,.
Cn1c(=O)c2c(-c3cccc(Br)c3)n(C(C)(C)CO)cc2n(C)c1=O,0.8,.,8,.,.,1.5%
CCC(C(=O)Nc1ccccc1C(=O)OC)n1c(C)c2cnn(-c3ccccc3)c(=O)c2c1C (stereo not given),0.4,.,5,.,.,-0.2%
COc1cnn(Cc2ccccc2)c(=O)c1SCc1ccccc1,0.1,-1.1,18,9,0,-1.5%
CN(C)C(=O)CSc1nnc([C@H](Cc2c[nH]c3ccccc23)NC(=O)OC(C)(C)C)o1,0.1,-2.2,3,3,-19,2.3%
CCC(C)NC(=O)c1ccc(NC(=O)C2=C(C)OCCS2)cc1 (stereo not given),0.3,-3.9,12,1,1,1.5%
O=C(Cn1cccc1)NCc1cccs1,0.5,-1.9,-13,0,5,1.0%[38.3 µM]
CCOC(=O)c1[nH]nc(N)c1NC(=O)c1ccc(Cl)cc1Cl,0.7,0.4,18,-1,2,-0.1%
CCC(C(=O)Nc1cc(C(=O)Nc2cc(C)ccn2)ccc1Cl)c1ccccc1 (stereo not given),3.1,-2.2,14,1,-4,1.4%
O=Cc1cccc(OCc2cccc3ccccc23)c1,-1.4,-2.8,5,13,14,1.1%
Cc1ccc(NC(=O)Cn2c(=O)n(Cc3ccc4c(c3)OCO4)c(=O)c3ccccc32)cc1,-0.5,.,40,.,.,0.5%
CCN(CC)C(=O)C1=C(C)N(CCC2=CCCCC2)C(=O)C(CC(=O)NCc2cccs2)C1 (stereo not given),.,-1.2,.,-1,-8,0.3%
CC(C)(C)c1ccc(CC(=O)N2CCC2(C)C(=O)Nc2ccc(F)cc2F)cc1 (stereo not given),1.3,-1.8,.,1,0,5.6%
CSc1cccc(NC(=O)CCCNC(=O)c2ccc(Cl)cc2)c1,1.9,-1.6,-10,-12,-2,0.2%
O=C(COc1ccc(Br)cc1)Nc1nnc(-c2cccnc2)s1,.,-7.2,.,-1,1,-1.0%
CCCN(CC(=O)Nc1ccccc1C)C(=O)C1CC(=O)N(c2ccccc2C(C)CC)C1 (stereo not given),0.5,-2.3,-6,5,.,1.4%
CC(C)N1C(=O)C(O)(C2COC(C)(C)CC2=O)c2ccccc21 (stereo not given),0.9,2.0,-4,43,-24,0.6%
CCc1ccc(C=NC23CN4CN(CN(C4)C2)C3)s1,-0.2,0.3,5,1,8,8.1%[38.3 µM]
CCOC(=O)C1=CN(CC)S(=O)(=O)NC1CC (stereo not given),-0.3,-1.1,10,1,0,-0.3%
COC(=O)c1ccc(NC(=O)C23CC4CC(C2)CC(n2cnc(Cl)n2)(C4)C3)cc1,0.3,-1.0,-9,0,-3,3.6%
CN(C)C(=O)CSc1nc(-c2ccccc2)c(-c2ccccc2)o1,0.0,5.5,-2,-4,.,0.4%
COc1ccc(C2C(C#N)=C(N)Oc3c2c(-c2ccccc2)nn3-c2ccccc2)c(OC)c1OC (stereo not given),0.1,-2.7,6,2,22,1.9%
COCCCn1c(SCc2cccc(C(F)(F)F)c2)nc2cc(OC)c(OC)cc2c1=N,0.8,-0.8,0,-3,-9,.
O=C(c1ccco1)N1CCN(C(=O)C2(S(=O)(=O)c3ccc(Cl)cc3)CC2)CC1,-0.7,1.2,13,7,9,0.2%[38.3 µM]
COCc1cc(Sc2ccc(Cl)cc2Cl)nc(-c2ccccc2)n1,0.0,-1.9,1,3,11,1.0%
CC(=O)N(CCc1ccccc1)Cc1cc2cc(C)ccc2[nH]c1=O,0.6,-3.5,17,-5,12,-0.7%
COc1cc(OC)cc(C(=O)Nc2cccc(NC(=O)c3cccs3)c2)c1,0.7,2.9,9,-20,-2,0.0%
O=C(Nc1cccc(Cl)c1)Nc1nnc(-c2ccncc2)s1,-0.2,9.9,13,4,1,7.1µM*
Cc1ccc(S(=O)(=O)N2CCN(C(=O)c3cc4c(s3)CCCC4)CC2)c(C)c1,1.7,-2.7,3,-3,3,4.5%
CCOC(=O)C1CCCCN1S(=O)(=O)c1csc(C(N)=O)c1 (stereo not given),0.2,.,-6,.,.,0.6%
CCN(CC(=O)Nc1ccc(NC(C)=O)cc1)C(=O)c1cccc(N2C(=O)c3ccccc3C2=O)c1,0.9,-3.3,-10,-2,-21,0.0%

# Assay outcomes from PubChem.

# Compounds were not picked by outcome; any-hit rate near 1%.
